Assay outcomes as filed in PubChem BioAssay.
TRPV1 PAM: enhances activation of the human vanilloid receptor TRPV1 | TRPV1-expressing cells, Fluo-8 calcium influx, capsaicin EC20 potentiation; host cell line not named in the record; control for the full effect not named in the record | 0.02% of 320,000 active | potentiation, % at 8.33 µM | Q8NER1 | AID 540277; active means potentiation above 80%; inconclusive means 30% to 80%; inactive means below 30%; also: 0% is about no effect
Target sequence (Q8NER1 whole entry, looked up): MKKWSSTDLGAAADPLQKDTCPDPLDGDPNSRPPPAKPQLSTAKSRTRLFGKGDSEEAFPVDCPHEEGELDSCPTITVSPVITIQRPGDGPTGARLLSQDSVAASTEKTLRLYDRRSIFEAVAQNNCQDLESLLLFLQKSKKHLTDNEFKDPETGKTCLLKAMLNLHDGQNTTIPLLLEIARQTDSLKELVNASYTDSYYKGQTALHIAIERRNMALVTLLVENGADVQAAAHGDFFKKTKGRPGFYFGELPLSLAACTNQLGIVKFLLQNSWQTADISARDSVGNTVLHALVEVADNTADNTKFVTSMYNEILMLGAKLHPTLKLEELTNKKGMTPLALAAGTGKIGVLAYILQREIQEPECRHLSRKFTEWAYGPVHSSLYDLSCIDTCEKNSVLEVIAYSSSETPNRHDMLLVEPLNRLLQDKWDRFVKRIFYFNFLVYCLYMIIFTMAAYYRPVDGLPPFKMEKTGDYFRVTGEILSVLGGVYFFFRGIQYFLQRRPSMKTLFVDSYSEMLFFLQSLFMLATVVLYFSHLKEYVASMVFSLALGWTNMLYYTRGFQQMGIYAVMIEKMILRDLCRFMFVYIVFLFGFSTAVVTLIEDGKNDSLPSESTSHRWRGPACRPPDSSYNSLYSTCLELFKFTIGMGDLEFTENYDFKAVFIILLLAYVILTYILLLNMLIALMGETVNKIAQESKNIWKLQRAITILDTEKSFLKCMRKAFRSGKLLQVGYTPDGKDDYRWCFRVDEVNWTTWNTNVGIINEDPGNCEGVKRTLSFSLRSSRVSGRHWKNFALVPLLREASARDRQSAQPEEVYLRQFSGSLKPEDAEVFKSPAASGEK
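Cells expressing TRPV1 were dye-loaded with Fluo-8 and read kinetically: 10 s baseline, 3 min after compound (agonist portion), then 2 min after EC20 capsaicin (allosteric enhancer portion). Calcium-bound dye fluorescence at 480/520 nm.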
Menin-MLL FL inh: menin-MLL binding inhibition, fluorescein peptide; Fluorescence polarization, fluorescein-MLL peptide displacement from menin; FP activity change, % at 61.4 µM; 290,000 tested, under 10 active; inconclusive = falling polarisation curve, or a change in total fluorescence; inactive = total fluorescence flat and polarisation flat or rising; no compound was filed as active; the % refers to the polarisation; negative = inhibition;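 also: % of control where 0% means no effect; inhibitors lower the polarisation; unlabelled MLL peptide was the positive control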
Sfp PPTase inh: blocks B. subtilis Sfp PPTase activity; AID 1490; 3.5% of 310,000 active; Potency, µM, without a hit: max response, negative = inhibition, actives largely listed as inhibitors; Biochemical Sfp PPTase activity, qHTS; Q9F4F7; active = well fitted inhibition curve with a large enough effect; inconclusive = small, poorly fitted or top-dose-only effect, or another doubt; inactive = no such curve, though single readings can be large or run the other way;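 also: the enzyme is Sfp with the accession as filed and its product quenches rhodamine fluorescence; potency is read from the fitted curve at half-maximal effect; 0% = enzyme reaction without inhibitor and -100% = no enzyme wells; top concentration of the series not given in the record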
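Fluorescence-quenching assay: 15 nM Sfp-PPTase preincubated 15 min at room temperature with compound, then 5 uM rhodamine-CoA and 12.5 uM BHQ-2-labelled YbbR peptide added. Fluorescence (ex 525/em 598 nm) read at start and after 30 min; difference gives rate.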
TRPML1 ag: human mucolipin-1 channel agonism. 0.12% of 410,000 active. Q9GZU1. TRPML1-expressing cells, Ca2+ dye fluorescence, FDSS; host cell line not named in the record; reference of the full effect not given here. activation, % (concentration not given with the values); in the data active = activation above about 50%; inconclusive = about 30% to 50%; inactive = below about 30%; also: 0% is about no effect; the text of the record puts the active cut at 80%
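Tet-induced TRPML1-DL cells, 1,500 per well, cultured overnight, were loaded with a no-wash Ca2+ dye for 45–90 min. Calcium fluorescence was recorded on the FDSS for 110 s after compound addition, before the EC80 agonist (4 uM 54-4) was added.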
TRPML1 inh: blocks the human TRPML1 channel; Q9GZU1; TRPML1-inducible cells, Ca2+ dye fluorescence, FDSS; stronger effect = lower value; inhibition of EC80 agonist-evoked calcium signal; activity change, negative = inhibition, % (no concentration beside the values); 0.02% of 390,000 active; in the data active means activity change below about -50%; inconclusive means about -30% to -50%; inactive means above about -30%;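 also: stimulus is agonist 54-4 at its EC80 concentration; % is scaled to controls: 0 for no effect and ±100 for the full control effect; compound concentration not given in the record; the text of the record puts the active cut at -80%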
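Tet-induced TRPML1-DL cells loaded with Ca8 no-wash calcium dye were read kinetically on FDSS. Compound addition was followed by EC80 agonist 54-4 (4 uM final); inhibition was read over 110 s.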
PINK1 modulator: modulators of PINK1 expression; PINK1 immunofluorescence, high-content cytometry, 24 h; AID 624263; 0.2% of 410,000 active; Potency, µM (top dose mostly 76.6 µM), inactives show at the top dose activation (PINK1 increase), hits mostly activators; active = well fitted activation curve with a large enough effect; inconclusive = small, poorly fitted or top-dose-only effect; inactive = flat fitted curve, though single readings scatter; cell line not stated here;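 also: potency is read from the fitted curve at half-maximal effect; % of control where 0% means no effect; nearly all actives have a fitted effect of over 65% in size; a mitochondrial uncoupler was the plate control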
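Measures PINK1 amount and localization on or inside mitochondria by immunofluorescence. Stable cells get compounds at 5 concentrations for 24 hours before fixation and staining; CCCP controls included.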
ClpP mod: qHTS Assay for Activators of ClpP. Potency, µM (series often up to 57.5 µM), without a hit: top-dose activity change, negative = active. ATP-dependent Clp protease proteolytic subunit (Bacillus subtilis (strain 168)), P80244. AID 651965, 2013. purified B. subtilis ClpP, FRET peptide cleavage, 20 min. 1.9% of 340,000 active; active = well fitted falling curve with a large enough effect; inconclusive = small, poorly fitted or top-dose-only effect; inactive = no such curve, though single readings can be large or run the other way; also: potency is read from the fitted curve at half-maximal effect; the source files actives as falling curves though it sought activators and does not explain the sign; nearly all actives have a fitted effect of over 65% in size; many hits overshoot -100%
Target sequence (P80244 whole entry, looked up): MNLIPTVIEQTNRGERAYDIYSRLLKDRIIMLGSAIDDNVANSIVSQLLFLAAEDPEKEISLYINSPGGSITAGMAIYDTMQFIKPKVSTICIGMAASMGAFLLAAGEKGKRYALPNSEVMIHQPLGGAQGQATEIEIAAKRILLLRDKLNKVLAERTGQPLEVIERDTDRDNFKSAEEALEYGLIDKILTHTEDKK
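Purified B. subtilis ClpP, 10 microg/mL final in Tris/HCl pH8 with KCl, BSA, glycerol and Tween-20, cleaved an Abz/nitrotyrosine-quenched decapeptide. Fluorescence (ex 320, em 430) was read at 0 and 20 min at room temperature. Delta was normalized to 5.8 microM ADEP and DMSO/no-enzyme controls.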
The depositor's hits bear a star; u = inconclusive; x = no result given; [ ] = dose if it differs, or a comment. Rows were taken by chance; about 4.4% have a hit in one of these screens.

SMILES	TRPV1 PAM	Menin-MLL FL inh	Sfp PPTase inh	TRPML1 ag	TRPML1 inh	PINK1 modulator	ClpP mod
O=C(C1COc2ccccc2O1)N1CCc2ccccc21 (configuration not stated)	14.2	2.0	-6.8%	1.1	-2.4	x	0.3%
S=c1ncc2[nH]c(=S)[nH]c2[nH]1	x	x	x	0.1	-18.6	-1.4%	x
CCOc1ccccc1NC(=O)c1sc2nc3c(cc2c1N)CN(Cc1ccccc1)CC3	x	x	x	-0.3	26.6	2.6%	-18.0%
Cc1cccc(N2CCN(C(=O)c3ccc(NC(=O)C4CCCO4)cc3)CC2C)c1 (configuration not stated)	-3.3	-4.9	7.6%	-0.4	35.4	0.8%	0.2%
OCCN1CCN(CCCc2c3c(cc4c2CCC4)CCC3)CC1	-8.8	3.8	5.7%	-1.6	-21.8	-1.8%	-5.3%
Cc1cc(C)n(/C(=C/N(C)C)C(=O)c2ccccc2)n1	4.6	4.0	10.2%	0.0	-4.5	3.6%	3.3%
Fc1ccccc1-c1nc(NCCCN2CCOCC2)c2ccccc2n1	-0.2	-2.6	14.6%	0.5	-9.9	-0.1%	-5.0%
CCc1cccc(NC(=O)Nc2csc3c2CCCC3)c1	x	x	x	0.0	17.3	10.0%	0.7%
Cc1ccccc1NS(=O)(=O)c1cccc2nonc12	11.4	x	4.3%	1.2	3.3	0.5%	0.5%
O=C(CCCCn1c(=O)c2ccccc2n(CC(=O)Nc2cccc(F)c2)c1=O)NCCc1ccccc1	x	x	x	-0.4	-6.7	4.1%	0.0%
COc1ccc2c(c1)C1=NN(/C(C)=C/C(C)=O)C(c3cccc(F)c3)C1CC2 (configuration not stated)	-27.0	3.9	-20.3%	3.0	37.4	5.4%	x
CCOC(=O)C(NC=O)(NC(C)(C)C)C(=O)OCC	4.6	0.5	-6.7%	0.2	36.6	3.1%	u
Nc1ncnc2sc3c(c12)CCNC3	4.6	-1.1	-5.1%	x	x	0.1%	-0.7%
Cc1ccc(C(=O)Nc2cccnc2)cc1S(=O)(=O)N1CCCC1	-12.7	x	5.7%	1.2	-7.4	u	-0.4%
Cn1c(=O)oc2cc(S(=O)(=O)NC(Cc3ccccc3)C(=O)Nc3ccc(F)c(Cl)c3)ccc21 (configuration not stated)	x	x	x	1.7	1.9	3.3%	-0.8%
Cc1nonc1NC(=O)CSc1ccc(-c2ccccc2)nn1	20.8	-0.6	-21.4%	0.9	9.6	4.1%[38.3 µM]	0.0%
O=C(COC(=O)CCc1ccccc1)Nc1cc(S(=O)(=O)N2CCOCC2)ccc1N1CCCC1	3.9	-1.1	20.3%	-1.3	7.5	0.6%	-0.8%
COc1ccc(CCNC(=O)Cn2c(=O)oc3ccccc32)cc1OC	3.3	0.8	12.3%	1.6	-2.1	-2.2%	-2.9%
CCCCSC1=N/C(=C/c2ccsc2)C(=O)N1c1ccccc1	2.0	1.0	-13.2%	1.2	-3.9	13.4%	-7.7%
CC(C)C[C@@H](CN1CCC[C@H]1CN1C(=O)C(=O)NC[C@@H]1Cc1ccc(O)cc1)N1C[C@H](Cc2ccc(O)cc2)N(CC2CCCCCC2)C(=O)C1=O	x	x	x	-0.2	x	1.7%	-0.2%
Cc1ccnc(NS(=O)(=O)c2ccc(NC(=O)/C=C/c3ccccc3)cc2)n1	0.8	6.4	11.4%	2.3	-3.9	-2.7%	x
O=C(/C=C/c1ccco1)N1CCN(S(=O)(=O)c2ccc(F)c(F)c2F)CC1	-1.9	6.9	39.8µM*	-0.3	-1.3	3.7%	-1.6%
CCCN(C(=O)CSc1nnc2ccccn12)C1CCS(=O)(=O)C1 (configuration not stated)	-2.2	x	x	0.2	-2.0	-1.3%	4.1%
Cc1ccc(S(=O)(=O)N2CN(CC3CCCO3)c3nc4ccccc4nc32)c(C)c1 (configuration not stated)	u	x	-11.9%	0.4	-1.2	-0.5%	4.1%
C=CCC1c2cccc(C(=O)O)c2C(=O)N1c1cccc(C)c1 (configuration not stated)	-17.6	0.5	-3.3%	0.7	29.1	-0.9%[38.3 µM]	-1.6%
CCOC(=O)CSc1nc(-c2ccccc2)cc(C(F)(F)F)c1C#N	x	x	x	0.9	-4.4	7.8%	1.3%
COc1ccccc1NC(=O)CN(Cc1ccco1)C(=O)c1cccs1	-2.6	1.5	-5.3%	-0.2	-4.8	x	-0.2%
C#CCNC(=O)C[C@@H]1C[C@@]2(C(=O)OCC)CCC=C2N(Cc2ccc3c(c2)OCO3)C1=O	x	x	x	-0.7	x	0.0%	1.0%
CCN(C(=O)COc1cccc2cccnc12)C1CCS(=O)(=O)C1 (configuration not stated)	-0.8	-4.4	-26.2%	1.2	-11.9	2.1%	-12.0%
CCC/C(=N/NC(=O)c1ccccc1Cl)c1ccccc1	-4.4	1.8	22.6%	4.9	0.0	2.0%	0.9%
CCN(CC)CCn1c(=O)n(-c2ccc(Cl)cc2)c(=O)c2c3c(sc21)CN(C)CC3	x	1.1	-23.4%	4.5	9.2	3.1%	-21.4%
CNc1nc(Cl)nc2ncn(C)c12	x	x	x	0.4	51.0	-0.2%	-0.5%
CCc1ccccc1NC(=O)CSc1nc2c(c(-c3ccco3)c1C#N)CCCC2	24.7	1.1	10.6%	-0.4	26.3	21.5%[38.3 µM]	-2.8%
Cc1cc(C)nc(-n2nc(C)c3c2N(Cc2ccccc2F)C(=O)CC3c2ccc(Cl)cc2)n1 (configuration not stated)	x	x	x	-0.5	-16.5	3.3%	3.5%
Cc1cccc(NC(=O)CN2CCN(C(=O)c3ccc(-c4nc5ccccc5s4)o3)CC2)c1C	4.3	x	x	2.6	30.6	-0.9%	x
CCc1ccc(OCCn2cccn2)cc1	-5.3	-0.9	2.7%	0.9	-18.9	-0.2%	x
COc1cc(OC)cc(-n2c(=O)c3sccc3n(Cc3ccc(F)cc3)c2=O)c1	x	x	x	0.8	11.4	3.4%	-0.5%
O=C(Cn1c(=O)oc2ccccc21)Nc1ccc(Cl)cc1	4.5	5.9	10.5%	-0.5	-6.1	4.6%	0.8%
CCc1ccc(C(=O)CCC2CCCCC2=O)cc1 (configuration not stated)	-21.0	6.1	-6.2%	-0.1	5.4	4.1%	1.9%
O=C(OCc1ccc(F)cc1)c1ccc2ccccc2n1	-20.7	-1.0	14.8%	1.9	-16.6	1.3%	x
CC(=O)Nc1ccc(NC(=O)CCCCCn2nnc3ccccc3c2=O)cc1	0.6	7.7	6.2%	-0.1	-12.6	3.4%	x
Cn1c(=O)c(=O)n(C)c2cc(N3CCCCC3)c(NS(=O)(=O)c3ccc(Br)cc3)cc21	-13.3	x	-22.9%	-1.0	15.2	1.0%	1.8%
COc1ccc(NC(=O)CNc2cc(S(=O)(=O)N3CCOCC3)ccc2NCC2CCCO2)cc1 (configuration not stated)	-11.0	4.3	6.5%	0.4	-21.7	-1.4%	x
CCn1c(=O)c(C(=O)NNS(=O)(=O)c2ccc(C)cc2)c(O)c2ccccc21	8.8	2.0	16.4%	-0.2	12.9	11.0%	-4.8%
CCOC(=O)c1cc(-c2ccc(F)cc2)n(CCC(=O)NCc2ccccc2OC)c1C	x	x	x	3.1	29.7	1.7%	-4.5%
CCc1ccc(NC(=O)c2sc3nc(C)c(Cl)c(C)c3c2NC(=O)c2ccccc2OC)cc1	x	x	x	1.2	3.7	-0.4%	-2.8%
CCc1cc(=O)oc2cc(OCC(N)=O)c(Cl)cc12	-5.6	8.3	12.1%	0.0	-3.1	1.3%	31.6µM*
CC(C)CCN1C(=O)c2ccc(C(=O)OCn3nnc4ccccc4c3=O)cc2C1=O	18.2	1.5	8.0%	0.5	-20.0	2.9%	-2.4%
CCn1cc(/C=C(\NC(=O)c2ccccc2OC)C(=O)N2CCOCC2)c2ccccc21	x	x	x	-1.0	8.9	0.7%	3.9%
Cc1cc(=O)oc2cc(NC(=O)COc3cccc(C(F)(F)F)c3)ccc12	-1.7	x	x	0.4	-2.6	6.4%	3.4%
CCOC(=O)Cc1csc(NC(=O)COc2cccc(C)c2)n1	-7.1	0.2	18.7%	1.6	-1.6	-0.3%	-0.8%
O=C(CN(CCc1ccccc1)S(=O)(=O)c1ccc(Br)cc1)NCc1ccc(Cl)cc1	x	x	x	2.6	8.1	10.4%	-2.8%
COC(=O)c1ccc(CSCC(=O)Nc2ccccc2)cc1	-8.5	-0.4	5.5%	-1.1	16.3	0.2%	x
Nc1nc(SCC(=O)NCCN2CCOCC2)nc2sc3c(c12)CCC3	1.3	1.3	-10.7%	2.8	4.4	-0.7%	x
CC(=O)Nc1ccc(S(=O)(=O)N2CCN(CCCOc3ccccc3Cl)CC2)cc1	-0.1	0.8	-1.3%	0.0	3.9	x	-4.4%
COc1ccc(/C=N/NC(N)=S)cc1OC(=O)c1ccccc1	14.4	1.4	-8.5%	-0.5	20.3	2.6%	-0.8%
CCC1Oc2ccccc2N(CC(=O)NCc2ccco2)C1=O (configuration not stated)	-11.4	3.7	-11.9%	0.5	-7.9	-0.4%	0.4%
CCN(CC)C(=O)C1=C(C)N(CCCN2CCCC2=O)C(=O)C(CC(=O)NC2CC2)C1 (configuration not stated)	x	x	x	0.3	-4.3	5.9%	2.8%
COc1ccc(NS(=O)(=O)c2cc(NC(=O)c3cccs3)ccc2N2CCCC2)cc1	7.3	x	20.7%	2.5	-5.2	3.8%	-2.3%
CC1=C(c2ccc(C)cc2)S(=O)(=O)N(Cc2ccc(C(=O)Nc3ccccc3C)cc2)C1=O	x	x	x	1.1	-9.9	4.9%	-2.9%
(next part)
SMILES	TRPV1 PAM	Menin-MLL FL inh	Sfp PPTase inh	TRPML1 ag	TRPML1 inh	PINK1 modulator	ClpP mod
CCCCC(=O)N(C)c1c(CC)nc2c(OCC(=O)c3ccc(F)cc3)cccn12	x	x	x	0.0	-12.2	2.4%	-3.7%
Cc1ccc(C(=O)Nc2ccc(S(=O)(=O)Nc3onc(C)c3C)cc2)cc1	x	x	x	1.9	9.8	0.0%	0.8%
Cc1cccc(-c2noc(-c3cccnc3NCc3ccc(Cl)cc3)n2)c1	x	x	x	0.0	-20.7	0.0%	-18.7%
O=C(NNC(=O)c1n[nH]c2ccccc12)c1ccccc1	-9.7	x	x	0.3	3.8	0.0%	-3.6%
O=C(COC(=O)/C=C/c1ccccc1)Nc1ccc2c(c1)OCCO2	u	x	x	2.4	-7.5	6.6%	0.6%
CC(NC(=O)c1ccc(Cn2cc([N+](=O)[O-])cn2)cc1)c1ccccc1 (configuration not stated)	1.1	0.5	2.6%	0.2	-12.7	-0.6%	0.2%
